Screening data (PubChem BioAssay)
BJeLR viab HTS: BJeLR cell viability reduction; BJeLR fibroblasts viability, CellTiterGlo ATP luminescence, 48 h; HRASV12, hTERT and SV40 LT/ST transformed; viability loss activity score, % (no concentration beside the values); 30,000 tested, 0.64% active; AID 2275; in the data active = viability loss activity score above about 50%; about a fifth of its hits are not listed in these tables;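 note: higher score means fewer live cells and less ATP luminescence; stock transfer was 50 or 100 nL into about 30 µL; 0% = vehicle wells and 100% = a reference killing control; one replicate is shown; the record names a cut of 85%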
A1 inh: inhibitors of A1; MEF A1-2A-BIM cells, caspase-Glo luminescence, 3 h; percent of clofoctol signal, DMSO as zero; caspase activation, % (concentration not given with the values); 21,000 tested, 0.51% active; AID 2241;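 active = most replicate scores above 10, or exactly half above 10 with mean activity above 10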;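 note: effector caspase 3 and 7 activity cleaving a DEVD luciferin substrate; 50 nL library stock added to about 30 µL; numbers are from one replicate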
Numbers without * were called inactive; . = not tested or not shown. An excerpt, so the mix of outcomes need not match the whole.

Order of values: BJeLR viab HTS | A1 inh
> Cc1noc(C)c1NC(=O)Nc1cccc2c1O[C@H](CN(C)S(=O)(=O)c1cn(C)cn1)[C@@H](C)CN([C@H](C)CO)C2=O
    2.2 | .
> O=C1NC(c2ccc(O)cc2)C(C(=O)c2ccccc2)C(O)(C(F)(F)F)N1 (stereo not drawn)
    2.9 | .
> CS(=O)(=NS(=O)(=O)c1cccs1)c1ccc(OC(=O)c2ccc(Cl)cc2)cc1 (stereo not drawn)
    2.5 | -0.4
> CCC(C)c1ccc(NC(=O)C2CC(=O)N(c3ccc(C)cc3)C2)cc1 (stereo not drawn)
    2.0 | -0.8
> C[C@@H]1CN([C@H](C)CO)C(=O)c2cc(NS(C)(=O)=O)ccc2O[C@@H]1CN(C)Cc1ccc(Oc2ccccc2)cc1
    -0.8 | 0.2
> C[C@@H]1CN([C@@H](C)CO)C(=O)c2cc(NC(=O)Nc3ccc(C(F)(F)F)cc3)ccc2O[C@@H]1CN(C)S(=O)(=O)c1ccccc1
    6.0 | -0.4
> Cc1ccc(S(=O)(=O)NC2=NCN(CCN3CCOCC3)CN2)cc1
    2.3 | -0.3
> Cc1occc1C(=O)Nc1ccc(F)c(F)c1
    2.9 | -7.4
> CC(C)NC(=O)N(C)C[C@H]1Oc2ccc(NC(=O)CCCN(C)C)cc2C(=O)N([C@H](C)CO)C[C@@H]1C
    -3.4 | -0.6
> C[C@@H]1CN([C@@H](C)CO)C(=O)c2cc(NS(=O)(=O)c3cn(C)cn3)ccc2O[C@@H]1CN(C)S(=O)(=O)c1ccc(Cl)cc1
    1.0 | -0.4

Order of values: BJeLR viab HTS | A1 inh
> C[C@@H]1CN([C@@H](C)CO)C(=O)c2cc(NC(=O)Nc3ccc(C(F)(F)F)cc3)ccc2O[C@H]1CN(C)S(C)(=O)=O
    3.4 | 0.0
> CCc1ccc(NC(=O)CC2C(=O)N(c3cccc(C)c3)C(=O)N2C2CC2)cc1 (stereo not drawn)
    1.5 | .
> C[C@H]1CN([C@@H](C)CO)C(=O)c2cc(NC(=O)Nc3ccc4c(c3)OCO4)ccc2O[C@H]1CN(C)Cc1ccc(C(=O)Nc2ccccc2N)cc1
    -2.5 | .
> CC(C)NC(=O)N(C)C[C@@H]1Oc2ccc(NC(=O)Cc3cn(C)c4ccccc34)cc2C(=O)N([C@H](C)CO)C[C@H]1C
    -1.0 | -1.1
> COc1ccc(S(=O)(=O)N(C)C[C@@H]2Oc3c(NS(C)(=O)=O)cccc3C(=O)N([C@H](C)CO)C[C@@H]2C)cc1
    -2.0 | .
> COc1ccc(NC(=O)N(C)C[C@@H]2Oc3ccc(NC(=O)C4CC4)cc3C(=O)N([C@@H](C)CO)C[C@@H]2C)cc1
    -1.5 | 0.8
> CNC(=O)Nc1cccc(-c2cc(-c3c(Cl)cccc3Cl)no2)c1
    2.0 | -1.1
> C[C@H](CO)N1C[C@H](C)[C@H](CN(C)C(=O)Nc2ccc3c(c2)OCO3)Oc2c(NC(=O)C3CCCCC3)cccc2C1=O
    -2.4 | .
> Cc1ccc2nc(S/C=C/C(=O)c3ccccc3)[nH]c2c1
    72* | 4.8
> C[C@H](CO)N1C[C@H](C)[C@H](CN(C)C(=O)Nc2ccccc2)Oc2ccc(NC(=O)C3CC3)cc2C1=O
    1.1 | 0.1

Order of values: BJeLR viab HTS | A1 inh
> C[C@H](CO)N1C[C@H](C)[C@@H](CN(C)S(=O)(=O)c2ccccc2)Oc2c(NC(=O)C3CCOCC3)cccc2C1=O
    5.1 | .
> CCN(Cc1ccccc1)S(=O)(=O)c1cc(Cl)ccc1Cl
    11 | -1.0
> C[C@@H]1CN([C@@H](C)CO)C(=O)c2cccc(NC(=O)c3ccc(-c4nccs4)cc3)c2O[C@H]1CN(C)S(=O)(=O)c1ccccc1
    -4.0 | .
> COc1ccc2c(Sc3ccc(Cl)cc3)c(C(=O)N(C)Cc3ccccc3)[nH]c2c1
    4.5 | 0.5
> COC(=O)C1CN(C(=O)COc2ccccc2)c2ccccc2O1 (stereo not drawn)
    2.3 | -0.1
> C[C@H](CO)N1C[C@H](C)[C@@H](CN(C)CC2CCCCC2)Oc2ccc(NS(=O)(=O)c3cccs3)cc2C1=O
    7.3 | -0.1
> Cc1noc(C)c1NC(=O)N(C)C[C@@H]1Oc2ccc(NC(=O)C3CCCCC3)cc2C(=O)N([C@@H](C)CO)C[C@H]1C
    -3.9 | 1.2
> Cc1ccc(S(=O)(=O)Nc2ccc3c(c2)C(=O)N([C@H](C)CO)C[C@H](C)[C@@H](CN(C)CC2CCCCC2)O3)cc1
    0.9 | 0.1
> Cc1csc2sc(-c3ccnc(SCC(=O)NCc4ccccc4)n3)c(C)c12
    . | 1.3
> C[C@H]1CN([C@@H](C)CO)C(=O)c2cccc(NC(=O)C3CCOCC3)c2O[C@H]1CN(C)C(=O)Nc1ccc2c(c1)OCO2
    6.2 | .

Order of values: BJeLR viab HTS | A1 inh
> O=C(Nc1cccc(C(F)(F)F)c1)Nc1cc(Cl)ccc1C(=O)O
    -5.7 | -3.1
> CC(C)C1Cc2c(sc3nc(SCc4ccc(Cl)c(Cl)c4)nc(N)c23)CO1 (stereo not drawn)
    7.0 | 0.2
> C[C@@H]1CN([C@H](C)CO)C(=O)c2cc(NC(=O)CCCN(C)C)ccc2O[C@H]1CN(C)S(=O)(=O)c1cccs1
    1.0 | -0.9
> CC(C)NC(=O)N(C)C[C@@H]1Oc2c(NS(=O)(=O)c3cccs3)cccc2C(=O)N([C@@H](C)CO)C[C@H]1C
    -2.0 | .
> O=C(Nc1ccc(N2CCN(c3ccc(C(F)(F)F)cn3)CC2)nc1)c1ccco1
    0.7 | -0.9
> C[C@@H]1CN([C@H](C)CO)C(=O)c2cc(NC(=O)Cc3ccccc3)ccc2O[C@@H]1CN(C)C(=O)Nc1ccc(F)cc1
    -5.3 | 0.5
> O=C(/C=C/c1ccc(O)c(O)c1)OCCc1ccccc1
    5.5 | -0.3
> COc1ccc(NC(=O)N(C)C[C@H]2Oc3c(NS(=O)(=O)c4ccc(C)cc4)cccc3C(=O)N([C@@H](C)CO)C[C@H]2C)cc1
    -8.1 | .
> Cc1ccc(SCc2cn3cccnc3n2)cc1
    -4.1 | -1.1
> CCCN(CCC)S(=O)(=O)c1ccc(C(=O)NCc2ccc3c(c2)OCO3)cc1
    -2.2 | 0.5

A different layout for part of the listing above:
> CC(C)C1Cc2c(sc3nc(SCc4ccc(Cl)c(Cl)c4)nc(N)c23)CO1 (stereo not drawn)
  BJeLR viab HTS: 7.0; A1 inh: 0.2
> C[C@@H]1CN([C@H](C)CO)C(=O)c2cc(NC(=O)CCCN(C)C)ccc2O[C@H]1CN(C)S(=O)(=O)c1cccs1
  BJeLR viab HTS: 1.0; A1 inh: -0.9

The list continues.
Order of values: BJeLR viab HTS | A1 inh
> CC(C)n1cc(-c2noc(-c3cccs3)n2)c(=O)n(Cc2ccccc2)c1=O
    -7.2 | 1.2
> Cc1ccc(-c2nc(Nc3ccccc3F)sc2C)cc1
    -0.5 | -0.9
> COc1ccc(NC(=O)Nc2ccc3c(c2)C(=O)N([C@H](C)CO)C[C@H](C)[C@H](CN(C)S(=O)(=O)c2ccc(F)cc2)O3)cc1
    5.3 | 1.0
> CC(=O)OCC1(C)CC2[C@]3(CO[C@@]24CCC2[C@@]5(C)CC[C@H](O[C@@H]6OC[C@@H](O)[C@H](O)[C@H]6O)[C@@](C)(CO)C5CC[C@@]2(C)[C@]4(C)C[C@H]3O)[C@@H](O)C1 (stereo partly drawn)
    7.0 | -0.3
> CCCN(CCC)C(=O)Cn1nc(CC)n2c(cc3sc(C)cc32)c1=O
    0.7 | -0.6
> C[C@H](CO)N1C[C@H](C)[C@H](CN(C)Cc2ccncc2)Oc2c(NC(=O)NC3CCCCC3)cccc2C1=O
    -3.2 | .
> COc1ccc2c(c1OC)C(=O)N1c3ccccc3N=C(c3ccc(Br)cc3)CC21 (stereo not drawn)
    4.5 | -0.6
> COc1cccc(-c2ncc(-c3ccccc3)o2)c1
    -1.2 | -5.6
> CCc1ccc2ncc(S(=O)(=O)c3ccccc3)c(N3CCCC3)c2c1
    0.7 | 0.4
> CN(C1CCCCC1)S(=O)(=O)N1CCCC(C(=O)O)C1 (stereo not drawn)
    -8.0 | 0.2

Order of values: BJeLR viab HTS | A1 inh
> CC1(C)CC(=O)C=C(SCC(=O)Nc2cc(C(F)(F)F)cc(C(F)(F)F)c2)S1
    7.3 | -0.8
> CSC1=NCCCN1C(=O)c1c(-c2ccccc2Cl)noc1C
    -2.0 | -0.3
> O=C1C2C3C=CC(C3)C2C(=O)N1CCO (stereo not drawn)
    -0.1 | 0.2
> OC(Cc1ccccc1)(c1ccccc1)c1ccccc1N=Cc1ccc2c(c1)OCO2 (stereo not drawn)
    2.7 | 0.2
> C[C@H](CO)N1C[C@H](C)[C@@H](CN(C)C(=O)Nc2ccc(C(F)(F)F)cc2)Oc2ccc(NC(=O)CCN3CCOCC3)cc2C1=O
    3.7 | 1.7
> C[C@@H]1CN([C@@H](C)CO)C(=O)c2cccc(NC(=O)NC3CCCCC3)c2O[C@@H]1CN(C)Cc1ccc(C(=O)O)cc1
    1.2 | .
> C[C@@H]1CN([C@H](C)CO)C(=O)c2cc(NC(=O)CCN3CCOCC3)ccc2O[C@H]1CN(C)Cc1ccccc1
    -0.1 | 0.1
> CO[C@@H]1[C@@H](OC(N)=O)[C@@H](O)C(Oc2ccc3c(O)c(NC(=O)c4ccc(O)c(CC=C(C)C)c4)c(=O)oc3c2C)OC1(C)C (stereo partly drawn)
    3.5 | 0.6
> COc1ccc(CC(=O)Nc2cccc(-c3nnc(-c4ccco4)o3)c2)cc1
    6.1 | 0.6
> C=CCSc1nnc(Cc2c(C)[nH]c3ccccc23)o1
    -2.8 | 1.1

Order of values: BJeLR viab HTS | A1 inh
> C[C@@H]1CN([C@@H](C)CO)C(=O)c2cccc(N(C)C)c2O[C@@H]1CN(C)Cc1ccc(Oc2ccccc2)cc1
    -2.5 | .
> COc1cc(O)c(CCO)c2c1C(=O)C[C@@H](C)O2
    -1.1 | -0.2
> CCNc1nc(NCC)nc(SCCOc2ccc(Br)cc2)n1
    -2.2 | -0.3
> Cc1noc(C)c1NC(=O)Nc1ccc2c(c1)C(=O)N([C@@H](C)CO)C[C@H](C)[C@H](CN(C)CC1CCCCC1)O2
    -1.8 | -0.8
> c1cc(C2OCC3(CO2)COC(c2ccncc2)OC3)ccn1 (stereo not drawn)
    2.2 | .
> COc1ccc(NC(=O)Nc2ccc3c(c2)C(=O)N([C@H](C)CO)C[C@@H](C)[C@H](CN(C)Cc2ccc(C(F)(F)F)cc2)O3)cc1
    2.5 | -0.1
> CCC1=Nc2cc(C(=O)NCCCN3CCOCC3)ccc2Sc2ccc(Br)cc21
    7.8 | .
> Cc1cc2cc(CNC(=O)C3CCCCC3)ccc2[nH]1
    -2.9 | .
> CC(C)NC(=O)N(C)C[C@H]1Oc2ccc(NC(=O)Nc3ccc4c(c3)OCO4)cc2C(=O)N([C@@H](C)CO)C[C@H]1C
    -7.4 | 0.6
> CCC(C)NC(=O)COc1ccc(C(C)(C)c2ccccc2)cc1 (stereo not drawn)
    5.2 | 1.0

Order of values: BJeLR viab HTS | A1 inh
> C[C@@H]1CN([C@H](C)CO)C(=O)c2cc(NC(=O)c3ccncc3)ccc2O[C@H]1CN(C)S(C)(=O)=O
    0.5 | 0.0
> CCCn1c(=O)cc(N)n(-c2ccc(OC(F)(F)F)cc2)c1=O
    -0.9 | 0.5
> CCN(C(=O)Cn1c(=O)oc2cc(S(=O)(=O)N3CCCC3)ccc21)c1ccccc1
    2.2 | -0.4
> C[C@@H]1CN([C@H](C)CO)C(=O)c2cc(NC(=O)CCCN(C)C)ccc2O[C@@H]1CN(C)S(=O)(=O)c1cn(C)cn1
    -5.7 | 0.5
> C[C@@H]1CN([C@H](C)CO)C(=O)c2cc(NS(=O)(=O)c3ccccc3)ccc2O[C@@H]1CN(C)S(=O)(=O)c1cccs1
    2.5 | -0.6
> C[C@@H]1CN([C@H](C)CO)C(=O)c2cc(NC(=O)Cc3cn(C)c4ccccc34)ccc2O[C@@H]1CN(C)C(=O)Nc1cccc2ccccc12
    5.5 | 0.1
> COc1ccc(-c2csc(NCc3ccccc3)n2)cc1
    -2.3 | 0.1
> Nn1c(-c2ccccn2)nnc1-c1ccccn1
    10 | -4.9
> COc1cc([C@H]2OC[C@H]3[C@@H]2CO[C@@H]3c2ccc(OC)c(OC)c2)ccc1O
    -4.9 | 1.0
> Cc1noc(C)c1NC(=O)N(C)C[C@H]1Oc2c(NS(=O)(=O)c3c(C)noc3C)cccc2C(=O)N([C@@H](C)CO)C[C@H]1C
    -4.7 | .

Structural class, those above containing a furan ring, fused or not.
Order of values: BJeLR viab HTS | A1 inh
> Cc1occc1C(=O)Nc1ccc(F)c(F)c1
    2.9 | -7.4
> O=C(Nc1ccc(N2CCN(c3ccc(C(F)(F)F)cn3)CC2)nc1)c1ccco1
    0.7 | -0.9
> COc1ccc(CC(=O)Nc2cccc(-c3nnc(-c4ccco4)o3)c2)cc1
    6.1 | 0.6

The list continues.
Order of values: BJeLR viab HTS | A1 inh
> COC(=O)c1cc(C(=O)OC)cc(N2Cc3nccnc3C2=O)c1
    0.6 | .
> Cc1cc(C(=O)Nc2cccc3c2O[C@@H](CN(C)CC2CCCCC2)[C@H](C)CN([C@@H](C)CO)C3=O)n(C)n1
    -1.2 | .
> C[C@H]1CN([C@@H](C)CO)C(=O)c2cccc(NC(=O)c3ccc(-c4nccs4)cc3)c2O[C@H]1CN(C)S(=O)(=O)c1ccccc1
    -1.4 | .
> CC(C)Cc1cnc(CCC(N)=O)c(=O)[nH]1
    3.3 | -0.3
> N#Cc1nc(-c2ccc(F)cc2)oc1NC1CCCCC1
    1.1 | .
> Clc1ccc(N2CCN(Cc3c[nH]c4ncccc34)CC2)cc1
    -3.7 | 0.3
